# From PubChem BioAssay
# Bfl-1 A1 inh: caspase 3/7 activation in MEF A1-2A-BIM cells, primary screen, A1 inhibitor project, cell-based, luminescence, HTS; caspase activation, % (test concentration not listed); AID 2462, 2010; actives 0.066% (n = 330,000); Caspase-Glo 3/7 luminescence, 3 h; percent of clofoctol response, vehicle zero;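 active = over half of replicate activation scores above 10%, or exactly half above 10 with the replicate mean above 10; inconclusive = replicate mean below 10 yet half the replicates above 10; inactive = over half of replicates below 10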;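 note: wells of about 30 µL received 50 nL stock; many hits fall short of the cut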
# Ecoli growth: E. coli growth inhibition, primary screen, OD600; Escherichia coli growth, 23 h; stronger effect = lower value; OD600 absorbance (concentration not given with the values); actives 0.21% (n = 330,000);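 active = OD600 absorbance below the run mean of sample wells minus 3.6 SD, in any replicate, cut at about 0.56 in these data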;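 note: stock transfer was 300 nL into about 60 µL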
# UCH37 inh: inhibitors of human UCH37 deubiquitinase, primary screen, biochemical, Ub-AMC cleavage, fluorescence; Ubiquitin carboxyl-terminal hydrolase isozyme L5 (Homo sapiens), Q9Y5K5; AID 588478, 2011; inhibition, % (test concentration not listed); actives 0.33% (n = 330,000); purified proteasome/UCH37;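 active = mean of two replicates above 20%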;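 note: 0% = compound-free wells with enzyme and 100% = wells lacking proteasome; stock transfer was 100 nL into about 20 µL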
# Target sequence (Q9Y5K5 whole entry, looked up): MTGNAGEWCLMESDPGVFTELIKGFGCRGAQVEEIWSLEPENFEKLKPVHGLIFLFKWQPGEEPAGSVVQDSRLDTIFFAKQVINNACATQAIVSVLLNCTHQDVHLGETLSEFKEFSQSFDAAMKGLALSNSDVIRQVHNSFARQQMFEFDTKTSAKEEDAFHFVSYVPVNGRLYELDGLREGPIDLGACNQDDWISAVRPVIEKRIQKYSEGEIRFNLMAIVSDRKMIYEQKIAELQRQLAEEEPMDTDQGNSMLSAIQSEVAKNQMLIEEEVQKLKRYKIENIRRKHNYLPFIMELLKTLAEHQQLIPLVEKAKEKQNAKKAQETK
#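 Test system – human UCH37 enzyme supplied as purified proteasome complex · Incubation – 30 min preincubation with enzyme, 25 min cleavage at room temperature · Detection – AMC fluorescence from Ub-AMC cleavage, excitation 355 nm, emission 460 nm · Benchmarks – no-proteasome wells (full inhibition) and compound-free wells (no inhibition)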
# FGF22 binding: binders of human FGF22 protein, primary screen, FGF22 synaptogenesis inhibitor project, biophysical, thermal shift, single point; Fibroblast growth factor 22 (Homo sapiens), Q9HCT0; recombinant FGF22 thermal shift, SYPRO orange fluorescence; percent of sucrose octasulfate shift, DMSO zero; calls only at 9.99 µM; actives 1.5% (n = 340,000); AID 651658, 2012;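 active = melting point raised past a set limit in the mean and every replicate; inconclusive = no clear call; three in four hits are not shown here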
# Target sequence (Q9HCT0 whole entry, looked up): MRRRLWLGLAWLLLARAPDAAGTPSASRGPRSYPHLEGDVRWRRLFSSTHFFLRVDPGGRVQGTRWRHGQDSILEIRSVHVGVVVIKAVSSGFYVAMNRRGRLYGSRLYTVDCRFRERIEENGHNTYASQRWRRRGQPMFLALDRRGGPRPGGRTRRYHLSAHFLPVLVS
# T cruzi inh: inhibitors of intracellular T. cruzi growth, primary screen, luminescence, NIH3T3 host cells; T. cruzi beta-gal in NIH3T3, 90 h; inhibition, % (concentration not given with the values); actives 1.4% (n = 300,000); AID 1885, 2009;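 active = mean inhibition across valid replicates above about 55%, limit read from the data; inconclusive = mean below that limit but half or more replicates reach it; inactive = mean below it, under half of replicates reach it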;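 note: signal also drops with host cell toxicity which is not excluded here; 0% = plate median of DMSO wells and 100% = zero luminescence signal; higher percent means less beta-gal luminescence so fewer parasites; stock transfer was 50 nL into about 50 µL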
# Ecoli rRNA inh: reduced GFP signal of wild-type E. coli, primary screen, bacterial rRNA inhibitor project, GFP/RFP fluorescence, OD600, single point; E. coli WT GFP vs humanized-ribosome RFP mutants, 24 h; stronger effect = lower value; DMSO median 0, no signal -100; GFP signal change (wild-type ribosome), % (no concentration beside the values); actives 1.6% (n = 350,000);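 active = significant combined selectivity score with lowered wild-type GFP, culture density cut under 30%, mutant RFP and density less affected; inactive = any of these conditions unmet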; note: one replicate is shown; some compounds called inactive have numbers as strong as hits
# AF4-AF9 inh: inhibitors of AF4 peptide binding to AF9, primary screen, biochemical, AlphaScreen, biotin-AF4 peptide, FLAG-AF9, single point; Protein AF-9 (Homo sapiens), P42568; inhibition, % at 10 µM; actives 0.47% (n = 350,000);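 active = every replicate reaching a set inhibition limit, whatever the replicate mean, cut at about 25% in these data; inconclusive = mean inhibition reaches that limit but some replicates miss it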;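 note: 0% = plate neutral control median and 100% = total signal loss; the record names both 10 and 1 µM as test concentration; the first replicate is given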
# Target sequence (P42568 whole entry, looked up): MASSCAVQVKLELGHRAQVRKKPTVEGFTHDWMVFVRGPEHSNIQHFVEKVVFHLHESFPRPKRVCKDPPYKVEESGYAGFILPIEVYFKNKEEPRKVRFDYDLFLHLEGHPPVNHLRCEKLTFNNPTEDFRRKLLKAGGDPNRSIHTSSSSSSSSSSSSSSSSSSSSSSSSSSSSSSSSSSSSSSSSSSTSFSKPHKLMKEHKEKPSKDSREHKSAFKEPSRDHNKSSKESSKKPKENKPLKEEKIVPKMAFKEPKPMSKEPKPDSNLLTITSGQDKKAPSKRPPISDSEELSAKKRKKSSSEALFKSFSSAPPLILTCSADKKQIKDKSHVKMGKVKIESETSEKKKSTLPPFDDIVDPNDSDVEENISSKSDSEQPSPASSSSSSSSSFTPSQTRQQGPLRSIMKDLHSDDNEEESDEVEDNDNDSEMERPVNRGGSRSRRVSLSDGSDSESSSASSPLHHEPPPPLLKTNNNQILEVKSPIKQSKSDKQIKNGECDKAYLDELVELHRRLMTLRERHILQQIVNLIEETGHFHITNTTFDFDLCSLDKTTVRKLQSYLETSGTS
# Beta cell apopt: inhibitors of cytokine-induced beta cell apoptosis, primary screen, luminescence. INS-1E cytokine-induced death, ATP luminescence, 48 h; percent of positive-control rescue, neutral wells zero. protection from apoptosis, % (no concentration beside the values). actives 0.8% (n = 300,000). AID 435005, 2010;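 active = all replicates at 75% or more, or half of them and the mean; inconclusive = half reach 75% but not the mean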;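 note: 0% = cytokine-treated negative control wells and 100% = positive control rescue; higher means more ATP so stronger rescue from cytokine killing; wells of about 40 µL received 100 nL stock; the first replicate is given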
# Ecoli rRNA inh OD600: second read-out of Ecoli rRNA inh, no call of its own (marks repeat the call); OD600 change, %; measured here: OD600 growth;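 optical density of the mix in the first replicate; 0 = DMSO median and -100 = no signal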
# Ecoli rRNA inh RFP: further read-out of Ecoli rRNA inh, marked with its call; RFP signal change, %; measured here: RFP humanized mutant strains;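 first replicate; 0 = DMSO median and -100 = no signal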
# The depositor's hits bear a star; i = inactive; ? = inconclusive; . = no result given.
no.	mol	Bfl-1 A1 inh	Ecoli growth	UCH37 inh	FGF22 binding	T cruzi inh	Ecoli rRNA inh	Ecoli rRNA inh OD600	Ecoli rRNA inh RFP	AF4-AF9 inh	Beta cell apopt
1	COc1cccc(C2Nc3ccccc3C(=O)N2Cc2ccccc2)c1 (centres undefined)	0.3	0.628	-126.5	i	42.4	-21.6	-13.7	1.3	.	.
2	COc1ccc(CNc2ccccn2)c(O)c1	.	0.653	4.5	i	-1.3	10.6	12.2	-3.2	1.5	.
3	COc1ccccc1C(=O)NCCC(=O)N1CC(=O)Nc2ccccc21	-0.9	0.72	1.6	.	1.5	.	.	.	.	-2.1
4	Cc1nn(-c2ccccc2)c2nc(Cl)c(C(=O)O)cc12	1.4	0.658	-72.5	i	-4.8	-2.0	-1.0	2.4	-2.0	-2.7
5	CCCC(=O)CN1C(=O)C2(OCCO2)c2ccccc21	1.4	0.714	1.8	.	-8.6	.	.	.	.	-6.5
6	CC(C)(C)c1ccc(S(=O)(=O)N2CCCC2C(=O)NC2=NCCS2)cc1 (centres undefined)	1.1	0.659	0.3	.	-2.5	.	.	.	.	-1.2
7	CCOC(=O)/C(=C\c1ccccc1)C(=O)c1cc(C(C)=O)c(Nc2ccccc2)s1	-1.2	0.745	0.9	.	54.6*	.	.	.	.	97.9*
8	CCO[C@@H]1OC(C(N)=O)=C[C@H](c2ccccc2)[C@H]1CCCO	-0.1	.	2.4	i	-5.1	11.9	9.7	-2.1	-2.8	1.1
9	Cn1nc(C(=O)NC(C)(C)C)c2ccccc21	0.6	0.624	2.3	.	-7.9	.	.	.	.	-2.8
10	Cc1ccccc1NC(=S)NC1CC2CCC(C1)N2Cc1ccco1 (centres undefined)	0.2	0.652	4.2	.	-14.2	.	.	.	.	4.5
11	Cc1cccc(C)c1OCCNC(=O)CCC(=O)c1ccccc1	0.2	0.712	3.2	i	-1.5	-3.1	3.2	-3.1	-2.4	-0.1
12	CCOC(=O)C1=CN(Cc2ccco2)S(=O)(=O)N(C)C1c1cccc(OC)c1 (centres undefined)	.	0.714	0.4	i	.	-6.1	-3.6	1.7	1.9	.
13	FC(F)C(F)(F)C1=CC(c2cccs2)=NCCN1	0.4	0.666	10.9	.	-6.4	.	.	.	.	-16.5
14	CC(=O)N1CCc2cc(S(=O)(=O)NC(C(=O)NC3CCCc4ccccc43)C(C)C)ccc21 (centres undefined)	0.3	0.756	-0.9	.	-15.3	.	.	.	.	-2.1
15	Cc1ccc(S(=O)(=O)N2CCCCC2)cc1C(=O)N(C)CC(=O)Nc1cccc(F)c1	-0.1	0.662	5.0	i	5.2	5.7	5.2	-0.2	-0.6	0.5
16	O=C1CCC(=O)N1c1ccc(CSc2nc3ccccc3[nH]2)cc1	-0.5	0.7	1.7	.	-5.9	.	.	.	.	2.4
17	COc1cc(/C=C2/SC(=O)N(CC(=O)N3CCCC3)C2=O)ccc1Oc1ccc([N+](=O)[O-])cn1	0.4	0.676	5.8	i	18.0	0.4	1.4	-2.0	6.5	-6.3
18	COc1cccc(NC(=O)CN(C)C(=O)c2ccccc2CCc2ccccc2)c1	1.0	0.688	3.8	i	19.6	-1.8	-0.6	-1.5	0.2	-2.7
19	CN(C)CCOc1nc(-c2ccccc2)nc2c1oc1ccccc12	-0.3	0.681	0.6	.	35.6	.	.	.	.	58.5
20	Cc1cnc(NC(=O)CSc2nc3ccccc3s2)s1	-0.1	0.683	2.6	.	-4.9	.	.	.	.	-5.5
21	CCN(CC)CCCNC(=O)C1CCC(CNS(=O)(=O)c2ccc(Cl)cc2)CC1 (centres undefined)	1.1	0.68	2.7	i	22.9	12.3	10.3	2.0	0.9	-11.0
22	CN(C)CCCNC(=O)c1ccc(CN(c2ccccc2)S(C)(=O)=O)cc1	0.0	0.698	0.7	.	50.9	.	.	.	.	-8.3
23	O=C(Cn1cnc2ccccc21)OCC(=O)N1CCc2ccccc2C1	0.1	0.663	0.2	.	-9.5	.	.	.	.	-0.6
24	Cc1ccc(S(=O)(=O)N2CCN(c3nc(CN4CCCC4)nc4sc(C)c(C)c34)CC2)cc1	-0.1	0.714	1.6	i	.	2.9	-2.5	8.9	9.1	7.0
25	Cc1csc(SCC(=O)Nc2ccc(C)c(F)c2)n1	.	0.643	2.1	i	.	-7.9	-19.4	-1.3	3.5	.
26	COc1ccc(-c2cc(-c3nnc(COC(=O)C4CC4C)o3)c3ccccc3n2)cc1OC (centres undefined)	-1.8	0.697	-76.9	i	4.9	-0.6	-4.0	-8.1	-4.8	-1.8
27	CCCN(CCC)C(=O)Nc1ccc(F)cc1F	-0.3	0.71	3.1	i	-9.4	12.3	3.6	-4.0	-3.0	0.6
28	O=C(CSc1ccccn1)N1CCN(c2ccccc2)CC1	0.7	0.642	-0.4	i	4.9	.	.	.	2.5	0.0
29	O=C(CC1CCCCC1)N1CCN(c2ccccn2)CC1	-0.7	0.678	-6.3	.	-7.9	1.8	-0.8	2.8	.	-13.9
30	CCOc1ccc(N(CC(=O)NCCSCc2ccc(Cl)cc2)S(C)(=O)=O)cc1	0.8	0.682	-0.2	i	2.2	1.9	1.8	0.7	-0.2	-0.7
31	O=C(c1cccc(C(F)(F)F)c1)C1CCCN(C(=O)CCCN2CCCC2=O)C1 (centres undefined)	-0.3	0.704	1.1	i	-1.0	-3.0	-7.9	1.8	-0.6	-1.2
32	COCCNCCCOc1ccc(C)cc1Br	-1.2	0.653	4.6	i	12.0	-1.5	-3.9	-1.2	-9.0	-0.2
33	CCOC(=O)c1cc(CC)sc1/N=C/C1=C(O)CCCC1=O	0.0	.	.	i	12.6	6.3	4.3	-2.7	17.3	-9.8
34	COc1cccc(C(=O)NCCS(=O)(=O)NCc2ccc(Cl)cc2)c1	0.5	0.636	1.9	i	-3.5	-2.1	-6.7	-5.9	-8.6	-2.9
35	CCOC(=O)c1c(N)sc(C(O)(C(F)(F)F)C(F)(F)F)c1-c1ccc(OC)cc1OC	-0.4	0.693	4.6	i	18.9	-26.9*	-13.2*	1.6*	-30.7	-2.6
36	CCOc1ccc2nc(NC(=O)CSCC(=O)Nc3cc(C)on3)sc2c1	-1.5	0.701	3.5	i	4.8	16.8	16.5	5.4	-1.0	-2.1
37	CCN(CC)S(=O)(=O)c1ccc(C(=O)NCc2n[nH]c(=S)n2Cc2ccccc2)cc1	0.4	0.659	5.6	i	-2.0	-9.6	-9.5	-0.6	-5.5	-0.9
38	CSCC[C@H](NC(=O)[C@H]1N2C(=O)c3ccccc3C2SC1(C)C)C(=O)NCc1ccncc1 (some centres undefined)	-0.6	0.672	5.0	i	-19.3	15.7	2.6	1.2	0.2	-2.3
39	CCN(CC)S(=O)(=O)c1ccc(NC(=O)COC(=O)c2ccc(Br)o2)cc1	-0.4	0.697	0.8	.	3.7	.	.	.	.	-5.7
40	N#Cc1cc2c(nc1SC1CCCCC1O)CCCC2 (centres undefined)	-0.2	0.715	5.8	.	13.4	.	.	.	.	-4.6
41	c1ccc(-c2nc3nc4ccccc4nc3n2Cc2ccco2)cc1	0.4	0.691	-12.3	.	4.8	.	.	.	.	5.6
42	Cc1cc(SCNC(=O)c2ccccc2)nc(C(C)C)n1	0.2	0.716	5.0	i	-9.9	12.8	-0.3	-0.8	-3.7	-8.8
43	CCCN(C(=O)c1ccc(N2CCCC2=O)cc1)c1c(N)n(Cc2ccccc2)c(=O)[nH]c1=O	0.7	0.68	5.6	i	-3.0	13.4	13.3	-1.4	-30.2	.
44	CCOC(=O)C1=C(C)Nc2ccccc2N=C1NC(=O)c1ccc(Cl)c(S(=O)(=O)N2CCCC2)c1	-1.3	0.683	1.2	i	46.7	9.8	-11.0	15.6	-0.1	2.6
45	O=[N+]([O-])c1ccc(N2CCN(S(=O)(=O)c3ccc4ccccc4c3)CC2)cc1NCC1CCCO1 (centres undefined)	1.3	0.689	2.9	i	34.5	8.3	8.8	-0.4	0.2	2.5
46	Cc1cc(C)cc(NC(=O)c2nccnc2C(=O)O)c1	0.6	0.72	6.5	i	-19.5	0.3	-3.6	-2.9	2.5	-1.0
47	COc1ccc(N2CCN(C(=O)C3CCCN3S(=O)(=O)c3cccc4nsnc34)CC2)cc1 (centres undefined)	0.9	0.695	5.2	.	-2.6	.	.	.	.	-1.7
48	CCOc1ccc(C(CC(=O)O)n2cnnn2)cc1 (centres undefined)	-0.5	0.685	1.7	i	-2.2	11.4	14.7	0.3	-3.3	0.0
49	Cc1cc2oc(=O)cc(C)c2c(=O)o1	-0.1	0.773	0.0	.	.	.	.	.	.	-6.7
50	CC(=O)N1N=C(c2ccncc2)OC12CCCCC2	0.3	0.673	-35.0	.	1.9	.	.	.	.	-4.3
51	O=C(Nc1ccc(NC(=O)c2ccc(Cl)c(S(=O)(=O)N3CCOCC3)c2)cc1)c1ccccc1	-0.2	0.705	-26.9	i	-8.2	7.2	16.5	3.3	-1.0	-5.6
52	Cc1cc(C)n2nc(C(F)(F)F)c(-c3ccccc3)c2n1	-0.2	0.661	-20.3	i	3.4	4.1	2.7	-2.0	-3.2	-2.1
53	O=C(COC(=O)CNC(=O)c1ccc(Cl)c([N+](=O)[O-])c1)NC(=O)c1ccccc1	0.6	0.684	4.3	i	-25.3	.	.	.	-1.0	0.9
54	O=C(CCC(=O)c1ccc(Oc2ccccc2)cc1)Nc1cccc(Cl)c1Cl	0.1	0.651	6.0	i	-18.7	14.8	18.9	0.5	-5.1	2.1
55	COc1ccc(/C=C/C(=O)NC2CCN(Cc3ccccc3)CC2)cc1OC	0.5	0.69	-15.4	i	45.2	0.8	6.8	-1.0	1.3	.
56	CCOc1ccccc1-c1nnc(SCC(=O)NC2CC3CCC2C3)n1CC (centres undefined)	-0.1	0.679	-0.9	.	7.3	.	.	.	.	5.4
57	CCOc1ccccc1OCC(O)CNC (centres undefined)	0.3	0.701	0.7	i	-6.0	9.7	1.9	-0.5	-11.0	1.7
58	COc1ccccc1CNC(=O)Nc1cccs1	?	0.646	2.0	.	8.4	.	.	.	.	-3.0
59	Cc1ccc2c(c1)Oc1ccc([N+](=O)[O-])cc1C(=O)N2	0.0	0.703	1.2	i	-18.5	14.9	7.3	-1.0	-1.4	-5.0

# An excerpt. The share of hits here may be higher or lower than overall.
